GALR2 ag: activates the human galanin receptor 2. GALR2-expressing cells, agonist activation read-out. AID 803. activation, %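 (tested at 5 µM)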. 0.48% of 140,000 active;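 active means above mean plus 3 SD of all compounds, about 5% in these data, not always enough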;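 further: 0% = vehicle buffer wells and 100% = reference agonist at full effect; tested in CHO reporter cells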
Insulin prom inh: TRM-6 insulin promoter activity inhibition | inhibition, % at 2 µM | 0.9% of 130,000 active | TRM-6 cells (human fetal islet line), insulin promoter-eGFP reporter, imaging; reporter expression induced with tamoxifen;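 active means inhibition above the mean plus 3 SD, with well images judged a real hit on visual review, cut at about 60% in these data, passing the limit was not always enough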
PKD1 kinase inh: blocks activity of human protein kinase D1. 0.056% of 200,000 active. AID 797. Q15139. inhibition, %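 (about 10 µM by stock and volumes)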. PKD1 kinase fluorescence polarization assay;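 active means inhibition of 50% or more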;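 further: controls were vehicle for no effect and a reference inhibitor for full effect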
Target sequence (Q15139 whole entry, looked up): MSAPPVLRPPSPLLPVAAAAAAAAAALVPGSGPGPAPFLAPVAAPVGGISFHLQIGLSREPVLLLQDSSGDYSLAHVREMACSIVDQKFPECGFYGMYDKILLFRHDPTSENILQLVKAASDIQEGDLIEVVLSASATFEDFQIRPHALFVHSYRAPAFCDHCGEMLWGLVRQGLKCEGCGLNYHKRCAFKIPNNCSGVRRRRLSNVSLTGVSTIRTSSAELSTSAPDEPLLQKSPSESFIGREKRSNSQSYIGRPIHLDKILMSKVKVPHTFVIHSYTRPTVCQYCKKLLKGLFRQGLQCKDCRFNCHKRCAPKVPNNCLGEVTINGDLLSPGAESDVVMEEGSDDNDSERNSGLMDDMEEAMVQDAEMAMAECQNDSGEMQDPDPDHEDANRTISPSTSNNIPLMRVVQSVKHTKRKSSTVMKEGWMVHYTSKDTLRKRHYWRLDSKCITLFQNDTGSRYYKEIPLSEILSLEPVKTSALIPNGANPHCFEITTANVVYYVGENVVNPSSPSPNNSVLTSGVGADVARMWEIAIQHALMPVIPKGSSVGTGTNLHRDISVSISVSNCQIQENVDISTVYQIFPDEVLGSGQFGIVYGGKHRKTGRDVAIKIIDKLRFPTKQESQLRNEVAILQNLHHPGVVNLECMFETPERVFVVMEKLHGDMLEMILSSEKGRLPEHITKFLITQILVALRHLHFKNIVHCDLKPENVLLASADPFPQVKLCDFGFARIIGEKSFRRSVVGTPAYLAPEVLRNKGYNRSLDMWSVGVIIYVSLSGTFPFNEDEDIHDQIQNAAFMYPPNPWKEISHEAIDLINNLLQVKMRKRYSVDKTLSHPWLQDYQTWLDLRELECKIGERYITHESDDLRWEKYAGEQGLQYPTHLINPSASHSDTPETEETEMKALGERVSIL
HSV augment: HSV replication enhancement. 0.005% of 220,000 active. HSV replication augmentation in cells, fold increase. maximum fold increase;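 active means peak rise of 1.5-fold or more in the series; tested in PC3 cells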;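 further: first round at 10 µM; read as green reporter fluorescence; hits show the peak of a series up to 25 µM; 1 = signal of infected wells without compound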
RGS16-Gao HTS: RGS16-Galphao interaction regulator (human); 0.38% of 220,000 active; O15492+P09471; binding response (% of control), % at 10 µM; bead-based flow cytometry RGS16-Galphao binding, fluorescence; actives lie on both sides;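 active means below 25% or above 175%, edge rows of some plates excepted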;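 further: Galphao activated by GDP with aluminum fluoride before binding; 100% = wells without compound and 0% = beads without RGS; some results beyond the cut were filed as inactive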
Insulin prom inh cell count: also measured in Insulin prom inh; calls as there; normalized cell count, %; measured here: cell count, toxicity; reference of the scale not given here;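 cells exposed to compound for 48 h; stained nuclei by imaging scaled within each plate; lower means fewer cells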
HSV augment primary fold: second read-out of HSV augment, no call of its own (marks repeat the call); fold increase; compound at 10 µM; measured here: primary screen fold increase 10 uM; tested in PC3 cells;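 GFP signal in the first replicate; 1 = infected wells without compound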
* marks the source's active call; other numbers are inactive results; i = inactive; · = no result given.

item	SMILES	GALR2 ag	Insulin prom inh	Insulin prom inh cell count	PKD1 kinase inh
1	CC(NC(=O)c1cccs1)C(=O)NC1=NCCS1 (configuration not stated)	-1.1	48	74	-6
2	CCOc1cccc2cc(-c3csc(NC(=O)CCC(=O)N4CCC(C)CC4)n3)c(=O)oc12	-2.3	36	109	-2
3	COCCNC(=O)CN(C(=O)CCC(=O)Nc1nccs1)c1ccccc1OC	-1.3	18	114	-15
4	NC(N)=N/N=C/c1ccccc1	-2.4	-42	43	-4
5	Cc1ccc(C(=O)OCC(=O)Nc2ccccc2C(F)(F)F)cc1S(=O)(=O)N1CCOCC1	-0.4	3	74	25
6	Cn1c(=O)[nH]c(=O)c2c1nc(N1CCCCCC1)n2CCCSc1nnnn1-c1ccccc1	1.8	15	88	-5
7	C#CCOc1ccccc1C(N)=O	·	·	·	·
8	C/C(=N\NC(=O)COc1cc(C)cc(C)c1)c1ccc(N2CCOCC2)cc1	-0.3	·	·	9
9	Cc1nnc(SCc2ccccc2Cl)n(N)c1=O	·	-23	95	5
10	Cc1cc(C(=O)CSc2nnc(-c3ccco3)o2)c(C)n1CC1COc2ccccc2O1 (configuration not stated)	-2.1	19	81	-6

item	HSV augment	HSV augment primary fold	RGS16-Gao HTS
1	i	1	101
2	i	0.49	106
3	i	1.1	98
4	i	1	104
5	i	0.99	102
6	i	0.79	80
7	i	1.1	100
8	i	0.92	102
9	i	0.95	100
10	i	1.1	96

Further structures:
item	SMILES	GALR2 ag	Insulin prom inh	Insulin prom inh cell count	PKD1 kinase inh
11	CCCC(C(=O)n1nc(C)cc1C)C(NS(=O)(=O)c1ccc(C)cc1)c1ccccc1 (configuration not stated)	0.5	7	75	-6
12	O=C(CSc1nc2ncc(Cl)cc2[nH]1)c1c[nH]c2ccccc12	·	·	·	·
13	O=C(NCc1ccc2c(c1)OCO2)c1ccc2c(c1)OCCO2	-0.6	3	97	-2
14	CC[n+]1c(C)cc(C)n1-c1ccccc1	·	-38	83	0
15	COC(=O)c1ccccc1NC(=O)c1cnc2sccn2c1=O	-2.4	-19	115	-10
16	Cc1ccc(C)c(OCc2n[nH]c(=S)o2)c1	·	·	·	·
17	O=S(=O)(c1ccc2ccccc2c1)N1CCN(S(=O)(=O)N2CCOCC2)CC1	0.5	-25	104	4
18	O=c1cc(CN2CCN(c3cccc(Cl)c3)CC2)c2cc(O)c(-c3ccccc3)cc2o1	-0.5	23	150	2
19	CN(Cc1ccccc1)C(=C(Cl)Cl)C(=C1NCCN1)[N+](=O)[O-]	·	22	88	1
20	O=C(Nc1ccccc1OC(F)F)c1ccc(Br)o1	-0.7	-60	85	5

item	HSV augment	HSV augment primary fold	RGS16-Gao HTS
11	i	0.97	99
12	i	0.87	101
13	i	1.1	110
14	i	1	105
15	i	0.93	96
16	i	0.96	93
17	i	0.83	103
18	·	·	106
19	i	0.93	101
20	i	0.86	102

Next entries:
item	SMILES	GALR2 ag	Insulin prom inh	Insulin prom inh cell count	PKD1 kinase inh
21	Cn1cccc1/C=N/NC(=O)C(O)c1ccccc1 (configuration not stated)	·	·	·	·
22	Cn1c(=O)n(Cc2ccco2)c(=N)c2c3c(sc21)CCCC3	·	·	·	-1
23	Cc1cc(OCC(=O)Nn2cnnc2)ccc1Br	-1.0	·	·	-7
24	COc1ccc(N(Cc2cc3ccccc3[nH]c2=O)S(=O)(=O)c2ccccc2)cc1	·	·	·	·
25	CCc1cc2c(=O)c(-c3ccc4c(c3)OCCO4)c(C)oc2cc1OS(C)(=O)=O	0.1	·	·	-1
26	N#CC1=C(N)SC(N)=C(C#N)C1c1ccnc2ccccc12	-0.6	-11	90	4
27	Cc1ccc2c(=O)oc(N(C)C)nc2c1	·	·	·	1
28	CCCNC(=O)Cc1c(OC)ccc2cc(Br)ccc12	-1.4	-8	98	-6
29	O=C(Nc1ccc(-c2nc3ccccc3[nH]2)cc1)c1c(F)c(F)c(F)c(F)c1F	·	-30	127	1
30	CC(=O)C1=C(C)NC(SCC(=O)c2ccc(F)cc2)=C(C#N)C1CC(C)C (configuration not stated)	-0.8	50	122	-5

item	HSV augment	HSV augment primary fold	RGS16-Gao HTS
21	i	1.1	105
22	i	1	103
23	i	1.1	235
24	i	0.99	91
25	i	0.78	67
26	i	1.1	89
27	i	0.86	100
28	i	0.87	104
29	i	0.9	102
30	i	0.92	90

(continued)
item	SMILES	GALR2 ag	Insulin prom inh	Insulin prom inh cell count	PKD1 kinase inh
31	CC(C)=C1SC(N2CCN(c3ccc(C)c(Cl)c3)CC2)=NC1=O	·	·	·	·
32	COc1cccc(NC(=O)CCN2CCN(C)CC2)c1	-3.6	·	·	-1
33	COC(=O)c1cc2n(n1)CCN(Cc1ccccc1F)C2=O	-0.8	44	80	-15
34	CCNc1sc(C(=O)c2cccs2)c(N)c1-c1nc2ccccc2s1	-1.1	·	·	7
35	COc1cccc(C(=O)N2CCN(C3CCN(Cc4ccccc4)CC3)CC2)c1	-1.3	·	·	0
36	COc1ccc(Br)cc1/C=N/NC(=O)c1ccc(OC)c(OC)c1	·	·	·	7
37	O=C(COC(=O)CCSc1ccccc1)NCc1ccccc1	·	·	·	-4
38	O=c1c2ccccc2[nH]c(=S)n1Cc1cccnc1	-0.7	52	100	-5
39	Cn1cc2ccc(N)cc2n1	·	·	·	0
40	CCOC(=O)C1CCN(C(=O)c2ccccc2NC(=O)c2ccc(Br)cc2)CC1	-1.0	-19	91	-6

item	HSV augment	HSV augment primary fold	RGS16-Gao HTS
31	i	1	100
32	i	1	105
33	i	0.9	105
34	i	1.2	94
35	·	·	102
36	i	0.97	100
37	i	0.98	103
38	i	0.99	101
39	i	0.96	106
40	i	0.97	110

Continuation.
item	SMILES	GALR2 ag	Insulin prom inh	Insulin prom inh cell count	PKD1 kinase inh
41	O=C(NC(O)C(=O)c1ccccc1)c1cccs1 (configuration not stated)	-2.4	·	·	2
42	Cc1ccc(Sc2c(C)[nH]n(C(C)(C)C)c2=O)cc1	-2.5	-57	81	-8
43	Cc1ccc(NC2c3ncccc3C(=O)N2Cc2ccco2)c(C)c1 (configuration not stated)	·	5	47	-8
44	CCCCCCN(C(=O)CCCCCN1C(=O)NC(c2ccc(-c3ccccc3)cc2)C(C(=O)OCc2ccccc2)=C1C)C(C(=O)NCCCC)c1ccc(O)cc1 (configuration not stated)	-0.9	5	30	-21
45	CCOC(=O)c1cc2c(=O)n3ccccc3nc2n(C(C)C)c1=NC(=O)c1c(-c2ccccc2Cl)noc1C	·	40	110	1
46	O=C(c1cc2nc(-c3ccc(Cl)cc3)cc(C(F)(F)F)n2n1)N1CCOCC1	·	·	·	-13
47	COc1cc2c(cc1OC)CN(c1nc(-c3cccnc3)nc3ccccc13)CC2	·	0	96	-4
48	CCCCCOc1ccc(C(=O)OCC(=O)Nc2cc(C)c(C)cc2[N+](=O)[O-])cc1	-0.8	-50	116	-6
49	O=C(NCc1ccc(F)cc1)c1cc2ccccn2n1	-0.8	·	·	-10
50	CC1=C(c2ccccc2)[N+](=O)C2(CCCC2)N1[O-]	-3.4	·	·	-4

item	HSV augment	HSV augment primary fold	RGS16-Gao HTS
41	i	0.81	104
42	i	0.81	101
43	i	0.97	106
44	i	0.95	109
45	i	0.85	101
46	i	0.57	93
47	i	1	98
48	i	0.98	97
49	i	0.9	103
50	i	0.81	81

(more compounds)
item	SMILES	GALR2 ag	Insulin prom inh	Insulin prom inh cell count	PKD1 kinase inh
51	COc1ccccc1C(=O)Nc1ccc2nc(SCC(=O)N(C)C)sc2c1	-0.6	25	61	8
52	CCOc1ccc(NC(=O)CN2C(=O)NC(CCSC)C2=O)cc1 (configuration not stated)	·	-18	221	-8
53	COc1cccc(C(C(=O)NCc2ccco2)N(Cc2ccco2)C(=O)Cn2nnc3ccccc32)c1 (configuration not stated)	-1.8	-19	141	-5
54	CN(Cc1nc(-c2cccnc2)no1)S(=O)(=O)c1ccc2ccccc2c1	-2.1	5	80	-4
55	O=C(Nc1ccc(Br)cc1F)c1cccnc1	0.6	-23	111	-8
56	O=C(CSc1ccc(-c2ccco2)nn1)c1ccccc1	-0.5	·	·	-6
57	O=C(NCc1nc(-c2ccccc2)no1)Nc1ccc(F)cc1	·	·	·	2
58	O=C(Nc1nc(-c2cccs2)cs1)c1ccc(Cl)s1	-1.3	43	59	-6
59	O=C(O)c1ccccc1Nc1ccc([N+](=O)[O-])cc1C(=O)O	·	·	·	·
60	O=C(Nc1nnc(Cc2ccc(Cl)cc2)s1)c1ccncc1	·	·	·	·

item	HSV augment	HSV augment primary fold	RGS16-Gao HTS
51	i	0.88	53
52	i	0.89	109
53	·	·	112
54	i	1.2	97
55	i	1	138
56	i	0.93	95
57	i	0.93	100
58	i	1	106
59	i	0.97	94
60	i	1	99

An excerpt of these results, as tab-separated lines:
cpd	smiles	GALR2 ag	Insulin prom inh	Insulin prom inh cell count	PKD1 kinase inh	HSV augment	HSV augment primary fold	RGS16-Gao HTS
60	O=C(Nc1nnc(Cc2ccc(Cl)cc2)s1)c1ccncc1	·	·	·	·	i	1	99
52	CCOc1ccc(NC(=O)CN2C(=O)NC(CCSC)C2=O)cc1 (configuration not stated)	·	-18	221	-8	i	0.89	109
54	CN(Cc1nc(-c2cccnc2)no1)S(=O)(=O)c1ccc2ccccc2c1	-2.1	5	80	-4	i	1.2	97

(list continues)
item	SMILES	GALR2 ag	Insulin prom inh	Insulin prom inh cell count	PKD1 kinase inh
61	CC(C)Cn1c(N)c(C(=O)COC(=O)C2CCCCC2)c(=O)n(C)c1=O	-1.4	-29	128	-7
62	Nc1ccc(NC(=O)NC2CCCCC2)cc1[N+](=O)[O-]	·	·	·	0
63	O=C1/C(=C/c2ccc(N3CCOCC3)o2)SC(=Nc2ccccc2)N1CCc1c[nH]c2ccccc12	1.8	·	·	-1
64	Oc1ccc(/C=C/c2cnccn2)cc1	·	·	·	·
65	CC(C)OC(=O)c1cc(C(=O)c2cc(F)ccc2O)coc1=N	-3.1	-59	85	4
66	COc1ccc(C(C(=O)NC2CCCC2)N(C(=O)c2ccoc2C)c2ccccc2)cc1 (configuration not stated)	-2.9	-16	98	-8
67	CCCCC1=CC2=CC(=O)C(C)(OC(=O)CC)C(=O)C2=CN1CCc1ccccn1 (configuration not stated)	·	·	·	·
68	Cc1nn(C(C)(C)C)c(OC(=O)C2CCCC2)c1S(=O)(=O)c1ccccc1	-3.5	-12	100	6
69	Cc1snc(S(=O)(=O)/C(C#N)=N/Nc2ccc(C(F)(F)F)cc2)c1C#N	0.0	71*	62*	-5
70	CC(=O)c1ccc(NC(=O)COC(=O)c2nc(Cl)ccc2Cl)cc1	·	·	·	6

item	HSV augment	HSV augment primary fold	RGS16-Gao HTS
61	i	0.97	96
62	i	0.9	106
63	·	·	104
64	i	0.91	97
65	i	1.2	100
66	i	0.95	116
67	i	0.78	97
68	·	·	95
69	i	0.96	89
70	i	0.88	100

Later entries:
item	SMILES	GALR2 ag	Insulin prom inh	Insulin prom inh cell count	PKD1 kinase inh
71	O=S(=O)(c1ccccc1)c1cnc(-c2cccnc2)nc1-c1ccccc1	-0.8	·	·	-4
72	CCOc1ccc(C(=O)N(Cc2ccc(N(C)C)cc2)C2CCS(=O)(=O)C2)cc1 (configuration not stated)	-1.8	41	45	-10
73	CCOc1ccc(OCc2ccc(C(=O)N3CCOCC3)cc2)cc1	-0.6	-22	91	-1
74	COc1ccc(Cc2nnc(NC(=O)CSc3ccc(Cl)cc3)s2)cc1OC	0.5	·	·	8
75	Cc1cc(C)c(S(N)(=O)=O)c(C)c1-n1cnnn1	-1.4	27	82	-5
76	COc1ccc(-c2nnc3n2N=C(c2cccc(Br)c2)CS3)cc1OC	9.7*	·	·	-2
77	CCCc1c(C(=O)Nc2cc(C(C)(C)C)on2)cnn1-c1ccccc1	·	·	·	·

item	HSV augment	HSV augment primary fold	RGS16-Gao HTS
71	i	1	99
72	·	·	99
73	i	0.87	100
74	i	0.94	108
75	i	1.1	100
76	i	1	104
77	i	0.87	95
